High-throughput results: PubChem, ICCB-Longwood Screening Facility, Harvard Medical School
S aureus helic: blocks Staphylococcus aureus DNA helicase | purified S. aureus helicase, fluorescence unwinding assay; about half of the hits fall short of the stated cut | 120,000 tested, 0.05% active | inhibition, %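 (tested at about 80 µM)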;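 active = both duplicates at 50% or more, or one of them with a favoured structure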;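 note: 0% = mean of negative control wells and 100% = mean of positive control wells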
MgrA-DNA mod: modulators of Staphylococcus aureus MgrA DNA binding | 84,000 tested, 0.13% active | fluorescence polarization | inhibition, %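 (about 10 µg/mL by stock and volumes)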 | AID 602314;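 active = above 50% in either of two replicates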;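 note: 0% = protein plus DNA without compound and 100% = DNA alone without protein; higher means less MgrA bound to DNA so lower polarization; one replicate is shown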
An asterisk follows results filed as active; . = not tested or not shown; & = joins results of further samples.

The first 5 compounds as a preview:
entry	molecule	S aureus helic	MgrA-DNA mod
1	CC(=O)NC(=O)c1cc2c(ccc3ccccc32)oc1=Nc1ccc(C(C)=O)cc1	.	0.1
2	C=CCc1c(C)[nH]c2c(Cl)cccc2c1=O	18.0	-0.8
3	CN(C)S(=O)(=O)c1cccc(C(=O)OCC(=O)NC2CCCC2)c1	-4.0	.
4	O=C(c1ccccc1)C(CC(=O)N1CCOCC1)c1ccccc1 (stereo not drawn)	11.0	-0.6
5	CC(C)S(=O)(=O)c1nnn(-c2cc(Cl)cc(Cl)c2)c1N	.	-0.9

This part in full, previewed entries included:
entry	molecule	S aureus helic	MgrA-DNA mod
1	CC(=O)NC(=O)c1cc2c(ccc3ccccc32)oc1=Nc1ccc(C(C)=O)cc1	.	0.1
2	C=CCc1c(C)[nH]c2c(Cl)cccc2c1=O	18.0	-0.8
3	CN(C)S(=O)(=O)c1cccc(C(=O)OCC(=O)NC2CCCC2)c1	-4.0	.
4	O=C(c1ccccc1)C(CC(=O)N1CCOCC1)c1ccccc1 (stereo not drawn)	11.0	-0.6
5	CC(C)S(=O)(=O)c1nnn(-c2cc(Cl)cc(Cl)c2)c1N	.	-0.9
6	Cc1ccc(C2CC(=O)N(C)c3c2c(C)nn3-c2nc3ccccc3s2)cc1 (stereo not drawn)	-16.0	.
7	CC(=O)c1ccc(C#CCO)s1	.	-1.9
8	CC(=O)Nc1ccccc1-c1nc2cc(C#N)c(C#N)cc2[nH]c1=O	10.0	0.8
9	CC1=C(C#N)C(c2ccc3c(c2)OCO3)C2=C(CCCC2=O)N1 (stereo not drawn)	15.0	.
10	CCn1c(=O)c(CCC(=O)NCc2ccc3c(c2)OCO3)c(C)c2c(C)nn(-c3cccc(C)c3)c21	0.0	.
11	COCCn1c(-c2ccccc2)nc2ccccc21	-9.0	.
12	COc1cc(/C=N/N=C/c2c[nH]c(=O)c(C#N)c2Nc2ccccc2)ccc1O	-10.0	.
13	O=C(O)CSc1nnc2c3ccccc3n(Cc3ccccc3)c2n1	13.0	.
14	CCOC(=O)c1nc2sc3c(c2c(=O)[nH]1)CCC(C)C3 (stereo not drawn)	-5.0	-0.5
15	Cc1noc(C)c1S(=O)(=O)N1CCCC1	3.0	.
16	O=[N+]([O-])c1cc(C(F)(F)F)ccc1Oc1ccc(-c2ccccc2)cc1	.	-4.5
17	CCC1(C)CC(=O)N(c2cc(Cl)cc(Cl)c2)C(=O)C1	.	2.3
18	CN1C2CCC1CC(NS(=O)(=O)c1ccc(F)cc1)C2 (stereo not drawn)	.	-0.3
19	CCOC(=O)c1c(NC(=O)CSc2nc3ccccc3[nH]2)sc2c1CCCC2	.	-0.1
20	CC1CCCCC1NC(=O)c1nnc(Cc2ccc(Cl)cc2)o1 (stereo not drawn)	4.0	.
21	CCOc1ccc(-c2ncnn2-c2ccc(Cl)cc2)cc1	-19.0	.
22	Cc1cc(=O)oc2cc(OCC(=O)N(C)C)c(Cl)cc12	2.0	-0.9
23	O=C(NCCCN1CCCC1)c1ccc2c(c1)N(Cc1ccccc1F)C(=O)c1ccccc1S2=O (stereo not drawn)	13.0	.
24	O=C(CCN1C(=O)NC2(CCCC2)C1=O)N1CCC(c2nc3ccccc3s2)CC1	-6.0	.
25	Nc1ccccc1SCc1noc(-c2cccs2)n1	.	-3.1
26	CCC(C)NC(=O)c1cnn2c(C(F)(F)F)cc(-c3ccccc3)nc12 (stereo not drawn)	6.0	-1.9
27	Cn1c(=O)cc(SCC(=O)NCC2CCCO2)c2ccccc21 (stereo not drawn)	15.0	0.2
28	NCCCN1CCc2ccccc21	6.0	2.5
29	Cn1c(CO)cnc1SCC(=O)c1ccc(Br)cc1	.	1.0
30	COc1ccccc1N1CCN(C(=O)COc2c(C)cccc2C)CC1	1.0	-2.4
31	Cc1nnc(SCC(=O)c2c(-c3ccccc3)n(C)c3ccccc23)n(N)c1=O	5.0	.
32	CC/C(C)=N/NC(=O)c1ccc(CSc2nncn2C)cc1	-11.0	.
33	COc1cc(OC)c(C(=O)NC2CC(C)(C)NC(C)(C)C2)cc1OC	6.0	-5.7
34	CCCCC(c1nnnn1CCc1ccccc1)N1CCN(C2CCCC2)CC1 (stereo not drawn)	18.0	-6.0
35	Cc1nn(-c2ccccc2)nc1C(=O)c1c(C)[nH]n(-c2ccccc2)c1=O	7.0	.
36	CC1Oc2ccccc2N(CC(=O)c2ccccc2)C1=O (stereo not drawn)	8.0	-3.4
37	Cc1c(-c2nnc(Nc3ccccc3)s2)sc2nc3n(c(=O)c12)CCC3	9.0	.
38	Cn1c(CCC(=O)NCc2ccc(F)cc2)nc2cc(S(=O)(=O)N3CCCCC3)ccc21	-10.0	.
39	CCN(CC)CCNc1nc2c(c(=O)n(C)c(=O)n2C)n1Cc1c(Cl)cccc1Cl	.	0.0
40	COc1ccc(N(C(=O)c2ccncc2)S(=O)(=O)c2ccc(OC)c(OC)c2)cc1	3.0	1.7
41	CCc1cc(C(=O)Cc2nc3ccccc3s2)c(O)cc1O	-7.0	-0.2
42	N#CCSc1nc2ccccc2c(=O)n1CCCn1c(SCC#N)nc2ccccc2c1=O	7.0	0.4
43	CCc1ccc(NC(=O)N(C2CCCC2)C2CCN(C(C)=O)CC2)cc1	6.0	.
44	CC(C(=O)NCC1CCCO1)C1Sc2ccccc2N(Cc2ccccc2F)C1=O (stereo not drawn)	0.0	.
45	CCOc1ccc(NC23SCC(=O)C2CCc2ccccc23)cc1 (stereo not drawn)	.	12.1
46	Cc1cc(C(F)(F)Cl)nc(-c2ccccc2)n1	.	-1.0
47	O=c1cc(Sc2ccc(Cl)cc2)c2ccccc2o1	.	-2.6
48	CCc1c(C)nn2cn[n+](Cc3ccccc3)c2c1[O-]	20.0	1.6
49	Cc1cc(N=Cc2ccccc2O)no1	.	-1.4
50	CC1Cc2ccccc2N1C(=O)CSCC(=O)O (stereo not drawn)	4.0	1.2
51	CCOC(=O)C1=C(C(F)(F)F)OC(N)=C(C#N)C1c1ccc(-c2ccccc2)cc1 (stereo not drawn)	1.0	0.0
52	O=C1CC(N2CCN(S(=O)(=O)c3ccc4c(c3)OCCO4)CC2)C(=O)N1c1cccc(C(F)(F)F)c1 (stereo not drawn)	-10.0	.
53	Cc1ccc(C(=O)Cc2ccccc2O)cc1	-9.0	2.3
54	Cc1ccccc1NC(=O)Cn1nc(C)c2ccccc2c1=O	0.0	-0.6
55	CC(NC(=O)CCOc1ccccc1)c1ccc(-n2ccnc2)cc1 (stereo not drawn)	-8.0	.
56	CCOC(=O)c1ccc(NC(=S)NCCCN2CCCC2=O)cc1	-9.0	.
57	COc1ccc(C2N=C(N3CCc4ccccc43)Nc3nc(C)cc(=O)n32)cc1 (stereo not drawn)	-4.0	0.7
58	O=C(CNc1cccc(C(F)(F)F)c1)NN=C1CCCCC1	0.0	.
59	O=C(O)c1ccc2c(c1)C(=O)N(CCC1=CCCCC1)C2=O	-14.0	0.6
60	Cn1c2c(c(=O)n(C)c1=O)C(c1cc3c(cc1Br)OCO3)CC(=O)N2 (stereo not drawn)	8.0	.

Next section
entry	molecule	S aureus helic	MgrA-DNA mod
61	CCOC(=O)c1c(C)nsc1Nc1cc(C)ccc1C	5.0	0.7
62	CCN(CC)CCNC(=O)c1ccc(N)cc1	.	-0.4&3.0&5.7&0.2
63	O=C(c1cc2ccccc2o1)N1CCCC1c1nc2ccccc2s1 (stereo not drawn)	-5.0	.
64	CCOC(=O)c1cccc(OCC(O)CN(C)Cc2ccc(C)o2)c1 (stereo not drawn)	-2.0	.
65	Cc1cc(NC(=O)COC(=O)/C=C/c2ccccc2Cl)no1	1.0	.
66	Cc1noc(C)c1C(=O)N1CCC(C(O)(c2ccccc2)c2ccccc2)CC1	7.0	.
67	O=C(NN=C1CCCCC1)c1n[nH]c2c1CCC2	-9.0	0.3
68	CCOC(=O)N1CCN(CC(O)COCc2ccc(Cl)cc2)CC1 (stereo not drawn)	-14.0	-0.3
69	O=C(c1ccc(-n2cccn2)cc1)N1CCCC1c1ccc2c(c1)OCCCO2 (stereo not drawn)	2.0	.
70	CN(CC(=O)N1CCN(Cc2ccccc2)CC1)S(=O)(=O)c1cnc[nH]1	8.0	.
71	CC1(C)C2CCC(C2)C1(C)NC(=S)NCC1CCCO1 (stereo not drawn)	.	-0.2
72	OCc1cc(Cl)cc(Cl)c1	.	0.6
73	CC(NC(=O)Nc1ccccc1Br)(C(F)(F)F)C(F)(F)F	-2.0	-0.1
74	COC(=O)c1ccccc1NC(=O)CCc1ccc(OC)cc1	8.0	2.8
75	Cc1ccc(C(=O)NCCC2=CCCCC2)cc1	8.0	-1.7
76	CSC(=NC(C)c1ccccc1)Nc1ccc(Oc2ccc(Cl)cc2)cc1 (stereo not drawn)	.	3.4
77	S=C(NCCN1CCCCC1)Nc1ccccc1	8.0	-0.1
78	Cc1ccc(-n2c(=O)c3sccc3n(CC(=O)c3ccc(Br)cc3)c2=O)cc1F	4.0	1.7
79	O=c1c2ccccc2c(-c2ccccc2)nn1-c1cc([N+](=O)[O-])ccc1N1CCN(CCO)CC1	.	-0.1
80	O=C(Nc1ccc(C23CC4CC(CC(C4)C2)C3)cc1)c1cccs1	1.0	3.3
81	OC(CN1CCCCC1)Cn1c2c(c3ccccc31)CCCC2 (stereo not drawn)	6.0	.
82	CC(=O)O[C@]1(C(C)=O)CCC2C3C=C(C)C4=CC(=O)CCC4(C)C3CCC21C (stereo partly drawn)	.	0.3
83	CC(CO)(CO)N=Cc1c(O)n(-c2ccc(Br)cc2)c(=O)[nH]c1=O	.	4.8
84	NC(=O)C[n+]1ccc(C(N)=O)cc1	21.0	.
85	CCOC(=O)c1cc(Sc2n[nH]c(-c3ccccc3)n2)cc(C(=O)OCC)n1	-24.0	.
86	CC(=O)Nc1cc([N+](=O)[O-])ccc1Sc1ccccc1N	.	-0.5
87	N#Cc1ccc(CSc2cnc3ccccc3n2)cc1	6.0	.
88	O=C(Nc1c[nH]c(=O)[nH]c1=O)C(c1ccccc1)c1ccccc1	4.0	.
89	Nn1c(SCC(=O)Nc2cccc(Br)c2)nnc1C(F)(F)F	-2.0	.
90	O=C(NC1CC1)c1cc(Cl)cc(Cl)c1	.	-1.8
91	COc1ccccc1-c1c(C(F)(F)F)oc2cc(OC(=O)c3ccco3)ccc2c1=O	.	0.3
92	O=C(c1ccco1)N1CCN(Cc2ccccc2)CC1	-19.0	-1.1
93	COC(=O)C1CCc2ccccc2N1 (stereo not drawn)	.	2.9
94	Cn1[nH]c(=O)cc1C(=O)NN	.	1.2
95	O=C(Nc1ccc(N2CCN(C(=O)c3ccco3)CC2)cc1)c1ccccc1	-15.0	0.9
96	c1csc(CNc2ncnc3nc[nH]c23)c1	16.0	.
97	COc1cc(/C=C/C(=O)Nc2nnc(C)s2)cc(OC)c1OC	-5.0	2.2
98	Cn1c2c(c(=O)[nH]c1=O)C(NC(=O)c1ccccc1)(C(F)(F)F)C(=O)N2 (stereo not drawn)	22.0	.
99	COC(=O)c1cc2oc3ccccc3c2n1CC(=O)Nc1ccccc1OC	22.0	.
100	O=c1[nH]ccn(-c2cccc(C(F)(F)F)c2)c1=O	.	0.6
101	COc1ncccc1C(=O)O	.	-1.4
102	Cc1oc(C(C)(C)C)cc1C(=O)N1CCCC1C(=O)O (stereo not drawn)	-5.0	2.4
103	Cc1nnc(Sc2cnn(-c3ccccc3)c(=O)c2Cl)n1C	12.0	.
104	CNC(=O)NC(=O)C(Sc1cccc[n+]1[O-])c1ccccc1 (stereo not drawn)	-2.0	.
105	Cc1cc(NC(=O)c2cnn3c(C(F)(F)F)cc(-c4ccccc4)nc23)no1	33.0	1.0
106	N#C/C(=N/Nc1ccc2c(c1)OCO2)C(=O)N1CCCC1	-31.0	.
107	COc1ccc(CC(=O)NC(=S)Nc2cccnc2Cl)cc1	5.0	-0.9
108	N=c1c2c3c(sc2ncn1CCCO)CCCCC3	-21.0	.
109	Nc1ncn(C2O[C@H](CO)[C@H](O)[C@@H]2O)c(=O)n1 (stereo partly drawn)	.	-3.1
110	CS(=O)(=O)N1CCN(c2ccccn2)CC1	14.0	.
111	COc1ccccc1-c1c(C)nn2c(SCC(=O)NCc3ccc4c(c3)OCO4)cc(C)nc12	6.0	-1.1
112	Cn1c(=O)[nH]c(=O)c2c1ncn2CC(O)CO (stereo not drawn)	21.0	.
113	O=C(CSc1ncnc2c1oc1ccccc12)Nc1ccccc1	20.0	.
114	O=C(Nc1nc(=O)c2ccccc2s1)c1ccccc1	7.0	-0.2
115	N#Cc1cccc(NC(=O)COc2ccccc2C(N)=O)c1	-1.0	.
116	Cc1ccc(C(=O)O)cc1NCc1ccccn1	-9.0	-1.0
117	COc1c(Cl)cc(Cl)c(OC)c1C(N)=O	.	-2.9
118	CC(=O)N1CN(C2CCS(=O)(=O)C2)Cc2c1sc1c2CCCC1 (stereo not drawn)	15.0	0.6
119	CN(CCC#N)C(=O)c1ccc2c(c1)N(Cc1cccc(Cl)c1)C(=O)c1ccccc1S2=O (stereo not drawn)	12.0	.
120	CCOC(=O)c1c(C)nn(-c2ccc(NC(=O)C(C)(C)C)cc2)c1C	.	-2.4

Next results
entry	molecule	S aureus helic	MgrA-DNA mod
121	CC(C)(C)NC(=O)Cn1nnc(-c2cccs2)n1	12.0	0.0
122	COc1cc(CO)ccc1OCc1ccc(Cl)cc1	11.0	-1.1
123	NC(=O)CC(=O)c1c(O)c2ccccc2n(-c2ccccc2)c1=O	8.0	0.0
124	c1ccc(-c2noc(CSc3nnc(C4CC4)n3-c3ccccc3)n2)cc1	-8.0	.
125	O=C(OCCN(C1=NS(=O)(=O)c2ccccc21)c1ccc(Cl)cc1)c1cccs1	13.0	-0.1
126	CCN(CC)c1ccc2cc(C(=O)NC(C)=O)c(=Nc3ccc(OC)cc3)oc2c1	.	0.8
127	COC(=O)c1sc(SC)c(C#N)c1-c1cccc(OC)c1	.	-0.2
128	Cc1nc(-c2cccs2)sc1NC(=O)Nc1ccc(Cl)cc1	30.0	.

The list is partial; rates above refer to the full screens.
